High-throughput results from PubChem.
Mtb growth: Confirmatory growth inhibition assay against Mycobacterium tuberculosis H37Rv, potency (AID 1949) | most inactive calls were filed without a number and no value below 0 was filed | inhibition, % at 10 µg/mL, or IC50 in µg/mL where a hit was titrated | 100,000 tested, 1.6% active;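 active = confirmed in a dose series; inconclusive = about 50% or more but not retested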;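 note: bacteria grown 7 days with compound before Alamar blue readout; 0% = untreated bacteria and 100% = reference antibiotic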
Numbers without * were called inactive; i = inactive; ? = inconclusive. Only part of the results is shown; count on the stated rates, not on these rows.

Compound	Mtb growth
COc1ccc(S(=O)(=O)N2Cc3ccccc3CC2C(=O)Nc2ccc(C)cc2C)cc1 (stereo not given)	i
CCC(C(=O)Nc1cccc(-c2nc3ccccc3o2)c1)c1ccccc1 (stereo not given)	i
Cc1cc(NC(=O)c2ccccc2Cl)c(OC(=O)c2ccccc2Cl)cc1C	i
COc1cc(C(=O)O)cc(I)c1OC1CCCC1	i
CC(=O)c1cccc(NC(=O)Nc2ccc(F)cc2C)c1	i
O=C(COc1ccccc1Cl)NC(=S)Nc1ccc(C(=O)O)cc1	i
COc1ccccc1C(=O)NC1(C(F)(F)F)C(=O)N(Cc2ccccc2)C2=C1C(=O)CCC2 (stereo not given)	i
O=S1(=O)CC2C(C1)N(c1ccccc1)C(=S)N2c1ccccc1 (stereo not given)	i
CCC(C)c1ccc(OCc2nnc(NC(C)=O)s2)cc1 (stereo not given)	i
O=c1[nH]ncc(N2CCc3ccccc3C2)c1Cl	i
N#Cc1ccc(Oc2ccc([N+](=O)[O-])cc2Cl)cc1	0.3%
COC(CCN(C)C)(c1ccccc1)c1ccccc1	i
O=C(Nc1ccc(Cl)c(Cl)c1)Nc1nnc(/C=C/c2ccccc2)s1	i
O=C(c1cc(Cl)ccc1Cl)N1CCCc2ccccc21	6.4%
COc1ccc(C(=O)NC(=S)Nc2ccc3oc(-c4ccc(C)c(C)c4)nc3c2)cc1	4.3%
CC(NC(=O)c1ccc(Br)o1)C1CC2CCC1C2 (stereo not given)	i
COc1cccc(CN2CCC(C(=O)N3CCN(c4ccccc4)CC3)CC2)c1	0.6%
CC(=O)Oc1ccc(C(=O)Nc2nnc(Cc3ccc(Cl)cc3)s2)cc1	i
COc1ccc(C(=O)n2nc(-c3ccco3)nc2SCc2ccccc2)cc1OC	1.3%
CCc1ccccc1N1C(=O)c2cccc3c([N+](=O)[O-])ccc(c23)C1=O	19µg/mL*
Cc1cc(C)nc(/N=C(\N)Nc2cc(Cl)ccc2Oc2ccccc2)n1	2.21µg/mL*
OCCCNC(=S)Nc1ccc(Cl)cc1Cl	1.0%
COc1ccc(OC)c(NC(=O)CN(c2ccc(OC)cc2OC)S(=O)(=O)c2ccccc2)c1	i
CCC(=O)Nc1ccc(NCc2ccccc2C)cc1	20.1%
O=C(Nc1ccc(Cl)cc1)c1cc([N+](=O)[O-])ccc1NCc1ccccc1	i
CC(C)(C)c1nc2scc(-c3ccc(Cl)cc3)c2c(=O)o1	i
O=C(O)C(CCCCN1C(=O)c2ccccc2C1=O)N1C(=O)c2ccccc2C1=O (stereo not given)	i
COc1ccc(CCNc2nc(C)cc(=O)[nH]2)cc1OC	i
CC1(C(=O)N2CCN(Cc3ccc4c(c3)OCO4)CC2)CC1(Cl)Cl (stereo not given)	i
N#CCc1ccc(NC(=O)c2ccccc2Br)cc1	i
CCCNS(=O)(=O)c1ccc(OCC(=O)NCCCOC)cc1	i
Cn1c(SCC(=O)Nc2ccc(N3CCOCC3)c(Cl)c2)nnc1-c1ccc(N)cc1	1.4%
CCOC(=O)c1cccc(NC(=O)Nc2cccc(C(F)(F)F)c2)c1	9.3%
CCC(=O)Nc1nc(C)cc2c1c(=O)oc1ccccc12	i
COC(=O)c1ccc(NC(=O)CSCc2ccc(C)cc2)cc1	?
CCOc1ccc(N(CC(=O)NCc2cccnc2)S(=O)(=O)c2ccc(OC)c(OC)c2)cc1	i
N#CC1(c2ccccc2OCc2ccccc2)CCC(=O)N1Cc1ccccc1 (stereo not given)	i
COc1ccc2oc(=O)c(C(=O)NC(C)(C)C)cc2c1	i
COc1ccc(C(=O)Nc2ccc(Cl)cc2C(=O)c2ccccc2)cc1[N+](=O)[O-]	i
CCCC(=O)Nc1ccc2nc(SCC(=O)NC(c3ccccc3)c3ccccc3)sc2c1	8.5%
NS(=O)(=O)c1ccc(CCNC2CC(=O)N(Cc3cccs3)C2=O)cc1 (stereo not given)	i
COc1ccc(OC)c(S(=O)(=O)N2CCN(c3ccccc3Cl)CC2)c1	0.2%
CCn1c(COc2ccc(C(=O)O)cc2)nc2ccccc21	i
CCOc1ccc(OCC(=O)NCCc2nc3ccccc3[nH]2)cc1	i
Cc1cc(S(=O)(=O)Nc2ccncc2)c(C)cc1Br	i
CCN1CCN(c2c(Cl)cccc2NC(=O)c2ccc(Cl)cc2)CC1	i
CN1CCN(c2nc(NCCO)c3ccccc3n2)CC1	i
O=C(COc1ccc(Br)cc1)Oc1ccc2ccccc2c1	i
Cc1cc(NC(=O)C(=O)NC2CCC(C)CC2)no1 (stereo not given)	i
COc1ccc(S(=O)(=O)N2CCN(C(=O)c3ccccc3)CC2)cc1C	i

Further compounds follow.
Compound	Mtb growth
S=C(Nc1ccccc1)Nc1ccc(N2CCOCC2)c(Cl)c1	i
CC(C)c1ccc(C(=O)Nc2ccccn2)cc1	i
CCOC(=O)Cc1csc2nc3sc(C)c(C)c3c(=O)n12	3.8%
COC(=O)c1ccccc1NC(=O)NNC(=S)NC1CCCCC1	i
CC(=O)c1cccc(NC(=S)NCc2ccccn2)c1	i
O=S(CCSc1nc2ccccc2s1)Cc1ccc(Cl)cc1 (stereo not given)	i
Nc1nc(/C=C/c2ccccc2)nc(-c2ccccc2O)n1	11.6%
O=C(NCc1ccco1)c1cccc(COc2cccc3ccccc23)c1	7.1%
O=C1NC(c2cc3c(cc2Cl)OCO3)Oc2ccccc21 (stereo not given)	i
Cc1ccc(NC(=O)CSc2nnc(-c3ccccc3)n2CC(C)C)c(C)c1	i
Oc1ccc(C(=S)NC2CCCCC2)cc1	i
O=C(CSc1ccc(F)cc1)Nc1ccccc1F	5.83µg/mL*
Cc1ccc(S(=O)(=O)NC(C)C(=O)NC2CCCCCC2)cc1 (stereo not given)	i
COc1ccccc1NC(=O)CSc1nnnn1C	i
CSc1nnc(-c2ccccc2O)n1-c1ccccc1	i
NC(=O)c1ccccc1NC(=O)CSc1ccc(Cl)cc1	i
CCOC(=O)c1ccc(NC(=O)CSc2nnc(COc3ccccc3Cl)n2CC)cc1	i
CC(Oc1cccc(Cl)c1)C(=O)NC(C)C1CC2CCC1C2 (stereo not given)	i
O=C(c1ccco1)c1cc2cc(Br)ccc2oc1=O	3.4%
CSc1nc2ccc(I)cc2c(=O)n1Cc1ccccc1	3.1%

Three compounds already listed, ordered by number of heavy atoms, largest number first.
Compound	Mtb growth
Cc1ccc(S(=O)(=O)NC(C)C(=O)NC2CCCCCC2)cc1 (stereo not given)	i
CC(Oc1cccc(Cl)c1)C(=O)NC(C)C1CC2CCC1C2 (stereo not given)	i
COc1ccccc1NC(=O)CSc1nnnn1C	i

Additional results.
Compound	Mtb growth
Cc1sc(NC(=O)C2C3C=CC(C3)C2C(=O)O)c(C(N)=O)c1C (stereo not given)	i
CCc1cccc(CC)c1NC(=O)Cn1cnc2sc(C)c(C)c2c1=O	i
CCS(=O)(=O)n1nc(-c2ccc(Cl)cc2)nc1SC	i
CCn1nnc(NC(=O)c2ccc(C#N)cc2F)n1	i
CCOc1cc(C)c(C(C)C)cc1S(=O)(=O)NCc1cccnc1	i
COc1ccc(NC(=O)CC2Nc3cc(C)c(C)cc3NC2=O)c(OC)c1 (stereo not given)	i
O=C(CN(c1ccc(Br)cc1)S(=O)(=O)c1ccccc1)N1CCCCCC1	i
CCOc1ccccc1OCC(=O)OCc1ccccc1	32.0%
CC(NC(=O)Cn1nc(-c2ccccc2)c2ccccc2c1=O)c1ccccc1 (stereo not given)	i
COc1ccc(NC(=O)CN(Cc2ccccc2Cl)S(=O)(=O)c2ccc(C)cc2)cc1OC	i
O=C(Nc1ccccc1)c1ccccc1OCC(O)Cn1c2ccccc2c2ccccc21 (stereo not given)	9.8%
COC(=O)c1ccc(NC(=O)/C(=C\c2ccco2)NC(=O)c2ccco2)cc1	3.1%
COC(=O)c1ccccc1NC(=O)CN1CCN(C)CC1	i
Cc1oc2cc(O)ccc2c(=O)c1N1C(=O)c2ccccc2C1=O	1.4%
CCCNC(=S)N1CCN(CCc2ccccc2)CC1	i
COc1ccc(C(=O)Oc2ccc3c(=O)c(-c4nc5ccccc5s4)c(C)oc3c2C)cc1OC	i
CC(=O)Nc1nonc1-c1nc2ccccc2n1Cc1ccc(C(C)(C)C)cc1	i
CCOC(=O)C1=C(c2ccc(OC)cc2)c2onc(N)c2C1c1ccccc1 (stereo not given)	i
CCOCc1nnc(NC(=O)c2ccc(NC(=O)C(C)C)cc2)s1	i
CCC(=O)Nc1ccc(-c2csc(N)n2)cc1	i

Another view of 4 compounds above:
O=C(Nc1ccccc1)c1ccccc1OCC(O)Cn1c2ccccc2c2ccccc21 (stereo not given)
- Mtb growth = 9.8%

COC(=O)c1ccc(NC(=O)/C(=C\c2ccco2)NC(=O)c2ccco2)cc1
- Mtb growth = 3.1%

COC(=O)c1ccccc1NC(=O)CN1CCN(C)CC1
- Mtb growth = i

Cc1oc2cc(O)ccc2c(=O)c1N1C(=O)c2ccccc2C1=O
- Mtb growth = 1.4%

Following part.
Molecule	Mtb growth
COc1cc(OC)cc(C(=O)Nc2ccc3c(c2)COC3=O)c1	i
CC(=O)c1cccc(NC(=O)COc2ccccc2C(=O)NC(C)c2ccccc2)c1 (stereo not given)	i
Cc1cc([N+](=O)[O-])ccc1NC(=O)CSc1nnc(CNC(=O)c2ccccc2C)n1C	i
COc1ccc(OC(=O)CCN2C(=O)C3C4C=CC(C4)C3C2=O)cc1 (stereo not given)	i
O=C(NC(=S)N1CCCc2ccccc21)C1CCCC1	i
CC(CNC(=O)c1ccccc1F)c1ccc([N+](=O)[O-])cc1 (stereo not given)	1.0%
S=C(NCC1CCCO1)NC1CCN(Cc2ccccc2)CC1 (stereo not given)	i
N#Cc1ccc(-c2cccs2)nc1SCC(=O)Nc1nccs1	i
S=C(Nc1ccc2c(c1)OCO2)N1CCN(Cc2ccco2)CC1	i
Cc1ccccc1C(=O)Nc1nnc(SCC(=O)NCCOc2ccc(Cl)cc2)s1	i
O=C(O)c1ccc(COc2ccc(I)cc2)cc1	i
CCOC(=O)c1c(NC(=O)C(CC)Oc2ccccc2)sc(C)c1C (stereo not given)	5.7%
COC(=O)CS(=O)(=O)c1cccc2cccnc12	i
O=C(CC(NCCC1=CCCCC1)C(=O)O)Nc1ccc(Cl)c(Cl)c1 (stereo not given)	i
CC1(C)CC(=O)C2=C(C1)NC(Nc1nc3ccccc3o1)=NC2c1ccccc1 (stereo not given)	13.7%
COc1ccc(N(CC(=O)Nc2c(C)cc(C)cc2C)S(=O)(=O)c2ccc(C)cc2)cc1	i

7 entries drawn at random from the list so far:
Molecule	Mtb growth
Cc1cc(NC(=O)C(=O)NC2CCC(C)CC2)no1 (stereo not given)	i
Cc1cc(S(=O)(=O)Nc2ccncc2)c(C)cc1Br	i
COc1ccc(NC(=O)CC2Nc3cc(C)c(C)cc3NC2=O)c(OC)c1 (stereo not given)	i
CC(C)c1ccc(C(=O)Nc2ccccn2)cc1	i
CCn1c(COc2ccc(C(=O)O)cc2)nc2ccccc21	i
CC(=O)c1cccc(NC(=O)COc2ccccc2C(=O)NC(C)c2ccccc2)c1 (stereo not given)	i
Oc1ccc(C(=S)NC2CCCCC2)cc1	i

The listing continues:
Molecule	Mtb growth
COC(=O)C(C(=O)OC)C(C)C(C)=O (stereo not given)	i
Cc1ccccc1NC(=O)c1ccc(S(=O)(=O)c2ccccc2)cc1	10.0%
COC(=O)c1c(NC(=O)c2ccc(C(C)C)cc2)sc(C)c1C	2.8%
COc1cc(F)ccc1S(=O)(=O)N1CCN(Cc2ccccc2)CC1	i
CCOc1cc(S(=O)(=O)N(CC)CC)ccc1F	i
COc1ccc(/C=C/C(=O)C2CC2)cc1	i
COc1cc2ccccc2cc1C(=O)O	i
COc1ccc(C(=O)O)cc1NC(=S)NC(=O)c1ccc(Br)cc1	i
Cc1nc2ccccc2c(=O)n1NC(=O)C1CCCCC1	i
O=C(CNCc1ccccc1)Nc1sc2c(c1C(=O)Nc1cccc(Cl)c1)CCC2	i
CC(=O)Nc1ccc2c(c1)nc1n2CCN(Cc2ccco2)C1	i
COc1cc(NC(=O)c2ccc(Cl)c(Cl)c2)ccc1NC(=O)C(C)C	i
O=C(O)C1CC(=O)N(Cc2ccc3c(c2)OCO3)C1 (stereo not given)	i
Cc1cc(C(F)F)n2nc(C(=O)NCc3ccccc3C(F)(F)F)nc2n1	i
O=C1CCCC2=C1C(c1cccnc1)N(C(=O)c1ccccc1)c1ccccc1N2 (stereo not given)	i
Fc1cccc(Cl)c1CNC1CN2CCC1CC2 (stereo not given)	i
Cc1ccc(O)c(CNc2nc3ccccc3[nH]2)c1	4.7%
OC(COc1ccc(Cl)cc1Cl)CN1CCN(Cc2ccccc2)CC1 (stereo not given)	5.8%
Cc1nnc(SCc2ccc(I)cc2)s1	4.3%
COC(=O)c1cc(N2CCN(C)CC2)nc2ccccc12	i
CCOC(=O)c1c(N)sc(C(=O)OC)c1C	i
COc1ccc(CC(=O)Nc2ccc(C)cc2NC(=O)Cc2ccc(OC)cc2)cc1	i
CCc1ccc(OCC(=O)O/N=C(\N)c2ccc(Cl)cc2)cc1	4.8%
O=c1[nH]nnc2sc3c(c12)CCCC3	i
CCOC(=O)CN1C(=O)C(O)(CC(=O)c2ccccn2)c2ccccc21 (stereo not given)	i
COc1ccc(-c2cc(-c3ccccc3)nc(SCC(=O)N3CCOCC3)c2C#N)cc1	i
COc1ccc(CSc2nnc(SCc3cccc(C(F)(F)F)c3)s2)cc1	8.6%
CCCNC(=O)CCCc1nc(-c2ccccc2OCC)no1	i
COc1ccccc1N1CCN(C(=O)CCC2CCCCC2)CC1	i
COc1ccc(S(=O)(=O)Nc2ccc(S(=O)(=O)Nc3ccccc3)cc2)cc1	i
CC(C)c1ccc(OCC(O)CN2CCN(c3ccccc3F)CC2)cc1 (stereo not given)	i
N/C(=N\OC(=O)CCC1CCCCC1)c1ccc(Cl)cc1	i
NC(=O)CSc1nnc(COc2ccc(Br)cc2)n1Cc1ccccc1	i
